# PABP FP inh – PABP-poly(A) binding inhibition; P11940; PABP-poly(A) RNA binding, fluorescence polarization; inhibition, % at 35 µM; hit rate 1% among 290,000; AID 2014;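 active means 50% or more with normal probe brightness, or confirmed in later tests; inconclusive means above 50% with abnormal brightness, or retests that disagree; inactive means below 50% or failed in later tests; about a fifth of its hits are not listed in these tables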;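 further: calls also rest on retests at 20 µM and on dose response follow-up; controls were probe without protein and protein plus probe with vehicle; some compounds called inactive have numbers as strong as hits; many hits fall short of the cut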
# Target sequence (P11940 whole entry, looked up): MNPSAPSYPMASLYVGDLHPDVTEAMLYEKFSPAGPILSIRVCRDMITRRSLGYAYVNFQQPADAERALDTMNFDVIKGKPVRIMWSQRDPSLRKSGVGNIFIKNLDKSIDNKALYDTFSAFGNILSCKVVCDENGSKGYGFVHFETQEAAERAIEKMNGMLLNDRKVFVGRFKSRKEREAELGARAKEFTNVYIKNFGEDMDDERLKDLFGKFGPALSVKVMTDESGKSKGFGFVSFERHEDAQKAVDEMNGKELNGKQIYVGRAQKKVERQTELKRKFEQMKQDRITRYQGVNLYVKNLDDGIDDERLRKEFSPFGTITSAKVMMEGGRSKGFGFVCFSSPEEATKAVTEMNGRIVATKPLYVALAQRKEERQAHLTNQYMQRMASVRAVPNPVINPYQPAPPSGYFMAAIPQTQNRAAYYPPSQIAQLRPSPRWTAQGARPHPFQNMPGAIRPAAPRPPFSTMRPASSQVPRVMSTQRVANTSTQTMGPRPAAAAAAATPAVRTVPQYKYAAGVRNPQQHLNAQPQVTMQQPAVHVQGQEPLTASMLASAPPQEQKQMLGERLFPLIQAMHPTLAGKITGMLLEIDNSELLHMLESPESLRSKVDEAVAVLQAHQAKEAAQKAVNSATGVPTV
# eIF4H inh – inhibitors of RNA binding by human eIF4H; eIF4H fluorescence polarization binding assay; inhibition, % at 35 µM; AID 2012; Q15056; hit rate 0.94% among 290,000;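 active means 50% or more with normal probe brightness, or confirmed in later tests; inconclusive means above 50% with abnormal brightness, or retests that disagree; inactive means below 50% or failed in later tests; about a fifth of its hits are not listed in these tables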;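 further: calls also rest on retests at 20 µM and on dose response follow-up; 0% = protein and probe with vehicle and 100% = probe without protein; strong numbers were not always called active; many hits fall short of the cut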
# UUG fidelity – yeast start codon fidelity modulation; S. cerevisiae UUG-firefly luciferase reporter, luminescence/redox ratio; hit rate 0.13% among 350,000; activity score, % at 18.7 µM;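 active means replicate mean at a twofold rise or more, about +100% in these data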;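 further: firefly luciferase made from a UUG start codon reports start codon fidelity; reporter light over untreated wells divided by growth signal over untreated wells; some hits fall short of that in this replicate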
# Rce1 inhib – blocks yeast Ras-converting enzyme; Q03530; yeast membranes, quenched prenylated peptide cleavage fluorescence; calls only; hit rate 0.27% among 290,000;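 active means fall in fluorescence gain of 50% or more versus controls, with final raw signal at or below 3038400; inconclusive means same 50% fall but final raw signal above 3038400; inactive means fall in fluorescence gain under 50%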;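 further: plate controls were neutral control wells for no effect and wells lacking membranes for full effect; tested at 10 µM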
# MT1-MMP act inh – inhibitors of human MT1-MMP activation | P50281 | HT1080 RFP-PRO-GFP cells, GFP/RFP ratio fluorescence, overnight; percent of plate control window, DMSO zero | GFP/RFP ratio change, % at 20 µM | hit rate 0.061% among 360,000 | AID 651647;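 active means GFP/RFP ratio change of at least 30% with cell ATP level not reduced by more than half and red fluorescence within 50% of control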; further: strong numbers were not always called active
#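 Test system: HT1080 RFP-PRO-GFP cells; Benchmarks: DMSO and RFP-L50D-GFP cell wells; Timing: cells overnight before dosing, compound overnight, 37 °C, 5% CO2; Compound: one 20 µM compound dose with 1% DMSO; Read-out: GFP/RFP fluorescence ratio.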
# Env fusion inh – inhibitors of HIV Env-mediated cell fusion. hit rate 1.1% among 360,000. HeLa-JRFL Env/CEM21 cell fusion, luciferase. AID 651610. inhibition, % at 12.3 µM;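 active means mean replicate inhibition score of at least 50 and every replicate individually at or above 50; inconclusive means only one of the two criteria met; inactive means mean below 50 and not all replicates reaching 50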;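 further: 0% = plate neutral controls and 100% = maraviroc near 300 nM; one replicate is shown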
# CSC inhib – cancer stem cell inhibition | cancer stem cell-like cells viability, luminescence | inhibition, % at 7.5 µM | hit rate 1.1% among 300,000 | AID 2717;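 active means mean at 75% or more and at least half the replicates too; inconclusive means mean and replicates disagree; tested in HMLE shEcad cells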;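 further: 0% = median of negative and 100% = median of positive control wells; the first replicate is given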
# eIF4H inh retest – recorded beside eIF4H inh, whose call it bears; inhibition, %; compound at 20 µM; confirmation average;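 mean of two retest wells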
# PABP FP inh retest – recorded beside PABP FP inh, whose call it bears; inhibition, %; compound at 20 µM; confirmation repeats;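 mean of two retest wells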
# MT1-MMP act inh RFP – recorded beside MT1-MMP act inh, whose call it bears; RFP signal change, %; measured here: RFP expression control read;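 0 = vehicle wells; hits needed this value within 50% of zero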
# Numbers without * were called inactive; i = inactive; ? = inconclusive; . = not tested or not shown; & = joins results of further samples. This is a subset, so the mix of outcomes need not match the whole.
SMILES,PABP FP inh,eIF4H inh,UUG fidelity,Rce1 inhib,MT1-MMP act inh,MT1-MMP act inh RFP,Env fusion inh,CSC inhib,others
CC(=O)N1CCN(C(=O)CSc2ncnc3sc(C)c(C)c23)CC1,.,.,.,.,2,0,10,-3,
O=C(O)COc1ccc(/C=N/NC(=O)/C(=C/C=C/c2ccccc2)NC(=O)c2ccccc2)cc1,-4,-9,-12,i,0,5,2,-15,
CC(C)(C)NC(=O)Cn1nnc(-c2ccc(Cl)cc2)n1,2,1,-5,.,5,6,.,-2,
O=C(OCc1ccccc1)C1=NNC2C(=O)N(Cc3ccccc3)C(=O)C12 (configuration not stated),6,-6,.,i,5,6,13,9,
COC(CNC(=O)C(=O)Nc1cc2c3c(c1)CCN3C(=O)CC2)OC,3,-6,-15,i,-2,5,-10,-2,
O=C(CS(=O)(=O)Cc1ccccc1)NCC1CCCO1 (configuration not stated),3,6,-20,i,-5,-3,3,7,
CNC(=O)NC(=O)C(C)OC(=O)c1c2c(nc3ccccc13)/C(=C/c1cccs1)CC2 (configuration not stated),-2,23,-8,i,-15,-4,-8,94*,
C[C@H](CO)N1C[C@H](C)[C@H](CN(C)C(=O)Nc2cccc3ccccc23)OCc2cnnn2CCCC1=O,.,.,-6&-2,.,4,4,27,.,
CCOC(=O)CCNC(=O)N1CCCC(C(=O)c2ccc3c(c2)OCO3)C1 (configuration not stated),-8,2,.,i,1,2,24,-8,
CC(C)Cn1c(=O)oc2ccccc21,1,-4,-8,i,0,4,7,-1,
Cc1cc(NC(=O)CSc2nc3c(cc2C#N)CCCC3)no1,-4,-7,.,i,5,-1,-171,16,
O=C(NCc1ccccc1F)C1CC(=O)N(c2ccc3c(c2)OCCO3)C1 (configuration not stated),.,.,-3,i,-4,-1,-5,17,
COc1ccc(CNn2cnnc2)c(O)c1,-8,-10,-19,i,0,1,-2,-12,
C=CCn1nc(-c2ccccc2)cc1C(=O)OCC,.,.,-9,i,2,1,4,-10,
Cc1cccn2c(=O)c(/C=C(\C#N)C(=O)NCc3ccco3)c(N3CCOCC3)nc12,5,7,-12,i,-2,-5,1,.,
O=C(N/N=C/c1c[nH]c2ccccc12)C1CC1(c1ccccc1)c1ccccc1 (configuration not stated),2,-8,-7,i,-15,-25,-28,79*,
O=C(O)CCCCCNS(=O)(=O)c1cccc2nsnc12,10,-5,-16,.,-4,-1,1,-8,
Cc1nc(Cl)sc1C(=O)Nc1ccccc1Cl,5,4,-19,i,1,0,-6,-7,
O=C(NCc1ccc2c(c1)OCO2)c1nc(Cn2cc(Br)cn2)no1,4,-3,-20,.,1,2,?,-3,
O=C(Nc1ccccc1-c1ccccc1)c1ccc(=O)[nH]n1,-5,4,5,i,-1,0,12,-7,
COCc1nc2ccccc2n1Cc1cccc(C)c1,8,-5,-34,i,1,-4,-2,0,
CN(Cc1ccccc1)C(=O)c1ccc2c(c1)NC(=O)C(N1CCOCC1)S2 (configuration not stated),14,-4,-31,i,0,-5,-4,.,
Cc1ccc(C(c2nnnn2C2CCCCC2)N(C)C2CCCCC2)cc1 (configuration not stated),-1,-3,-40,i,-14,-14,?,31,
CC(=O)N1CCOc2ccc(S(=O)(=O)N3CCC(C)CC3)cc21,-2,6,-1,i,-7,-3,-3,-6,
COc1ccccc1C1CCN(Cc2cccc3ccccc23)CC1,12,6,-8,i,0,-2,-1,25,
CCN(CC(=O)Nc1ccccc1C(F)(F)F)C(=O)c1oc2c(Cl)cccc2c1C,.,.,-3,i,5,4,i,.,
O=C(Nc1ccccc1Cl)c1cc2ccccc2o/c1=N\O,7,0,-2,i,4,-3,-35,23,
Cc1ccc(Cn2c([N+](=O)[O-])cnc2C)cc1,4,-11,-6,i,-1,2,-65,-3,
O=[N+]([O-])c1ccc(O)c2cccnc12,-8,41,-4,.,-4,0,-1,1,
O=C1N(Cc2cccc(Cl)c2)C[C@@H]2C[C@@H](c3cccn3-c3nccs3)N3CCC[C@@]123,-6,-6,.,i,-8,-4,23,6,
O=C(Nc1ccc(S(=O)(=O)N2CCc3ccccc32)cc1)c1ccco1,-6,1,-19,i,0,-13,9,2,
COc1ccc(N/C=C2/CCCCC2=O)cc1,27,-5,-16,i,-5,-10,-26,-9,
C#CCOCCOCCOCCNc1nc(N2CCOCC2)nc(N2CCN(C(=O)Cn3cc(CCCN=C(N)N)nn3)CC2)n1,-4,7,3,i,-1,-1,.,0,
CC1CCCN(CC(O)CN2CCN(CC(O)CN3CCCC(C)C3)C(C)C2)C1 (configuration not stated),.,.,-14,.,1,1,-71,.,
O=C(COC(=O)CCc1c[nH]c(=O)[nH]1)Nc1ccccc1,15,26,-3,i,-5,5,14,-11,
CCC(CC)C(=O)NCCc1cc2ccc(OC)cc2[nH]c1=O,-5,-4,.,i,1,1,.,-8,
CCCCC[C@@H]1C=C(C(=O)O)[C@H](c2ccc(CC)cc2)N1S(=O)(=O)c1ccc(C)cc1,.,.,-5,.,3,-1,16,.,
O=C(CSC1=NC(=O)C(c2ccccc2)C(=O)N1)Nc1ccccc1Cl (configuration not stated),-10,2,10,i,-2,0,.,-5,
CCn1c(CS(=O)Cc2ccc(Cl)cc2Cl)nnc1SCc1c(Cl)cccc1Cl (configuration not stated),-14,-12,-19,i,1,-13,.,0,
Cc1nn(-c2ccccn2)c2c1C(=O)CC(C)(C)C2Br (configuration not stated),7,14,-28,i,-6,-4,15,17,
CCN(CC(=O)Nc1ccc(NC(C)=O)cc1)C(=O)c1cccnc1Sc1ccc(C)c(C)c1,.,.,-16,i,3,2,-24,-14,
CCOC(=O)C1CCCN(C(=O)c2cn(C)c3ccc(S(=O)(=O)N(C)C)cc3c2=O)C1 (configuration not stated),8,-1,-9,.,3,4,-163,-5,
CN(CC(=O)N1CCc2ccccc21)S(=O)(=O)c1cccc2cccnc12,-8,-1,-12,i,0,5,16,2,
Cc1c(Br)c([N+](=O)[O-])nn1C(C)C(=O)NCC1CCCO1 (configuration not stated),4,-7,.,i,0,1,-8,-20,
O=C(COc1coc(CN2CCc3ccccc3C2)cc1=O)Nc1ccc(Cl)cc1,.,.,15,i,-1,-5,6,-5,

# The closing 2 entries of the section before lead into the next.
SMILES,PABP FP inh,eIF4H inh,UUG fidelity,Rce1 inhib,MT1-MMP act inh,MT1-MMP act inh RFP,Env fusion inh,CSC inhib,others
Cc1c(Br)c([N+](=O)[O-])nn1C(C)C(=O)NCC1CCCO1 (configuration not stated),4,-7,.,i,0,1,-8,-20,
O=C(COc1coc(CN2CCc3ccccc3C2)cc1=O)Nc1ccc(Cl)cc1,.,.,15,i,-1,-5,6,-5,
CCOc1ccccc1NC(=O)COC(=O)C(CC(C)C)N1C(=O)C2CC=CCC2C1=O (configuration not stated),0,-2,.,i,1,4,9,10,
Cc1c(NS(=O)(=O)c2cc(C(=O)O)ccc2Cl)c(=O)n(-c2ccccc2)n1C,2,11,-19,i,-2,-2,-7,7,
COc1ccc2oc(C(=O)N3CCCc4ccccc43)c(C)c2c1,.,.,-24,i,-4,-5,-59,-4,
CC(C)Cc1csc(NC(=O)c2ccc(Cl)cc2)c1C(=O)O,0,-10,-10,i,1,1,6,24,
COc1ccc(-n2c(=O)c3ccccc3n(CC(=O)Nc3ccccc3OC)c2=O)cc1,0,-14,.,i,-2,-1,2,-4,
COc1ccc(F)c(C2C(C#N)=C(N)Oc3n[nH]c(C(C)(C)C)c32)c1 (configuration not stated),-6,-10,-48,i,-1,-1,-5,.,
O=C(COC(=O)CCC(=O)Nc1nccs1)NCc1ccco1,-3,-2,-5,i,1,5,-23,-7,
O=C(OCC(=O)N1CCCCCC1)c1cccs1,-2,6,-32,i,1,6,.,10,
CCSc1nc2sc3c(c2c(=O)n1-c1ccccc1)CCN(C(C)C)C3,-8,64,-5,i,-13,-6,-10,27,eIF4H inh retest=0;PABP FP inh retest=30
COC(=O)N/N=C1\CCCc2c(C)cc(C)cc21,7,-2,.,i,1,1,-11,-5,
CSc1ccc(CN2CCC(C)(Oc3ccc(-n4ccnc4)cc3)C2)cc1 (configuration not stated),.,.,-21,.,-3,-7,31,.,
Cc1onc(-c2c(F)cccc2Cl)c1C(=O)OCC(=O)NC(=O)NCC(C)C,12,-4,.,i,2,-5,1,-6,
CN1C(=O)C(=C2CCCCCC2)SC1=S,7,0,10,i,2,1,.,2,
CC(=O)Nc1ccc(/C=N/NC(=O)CC2CCCCC2)cc1,.,.,-3&-4,.,4,4,0,.,
COCCn1c(Cc2cccn2C)nnc1SCC(=O)Nc1nccs1,76,2,.,i,2,3,-17,-1,eIF4H inh retest=-9;PABP FP inh retest=15
Cc1[nH]c(=O)[nH]c(=O)c1/C=N/NC(=O)[C@H](CC(C)C)NC(=O)OC(C)(C)C,3,0,9,i,1,2,.,2,
COc1ccc(C2CC(c3cccs3)=NN2C(=O)CSc2nncn2C)cc1OC (configuration not stated),8,2,.,i,-1,-2,1,-1,
CC1(C)Oc2ccc3ccc(=O)oc3c2CC1O (configuration not stated),-3,-10,-13,?,-3,-2,8,-11,
COc1cccc(/C=C/C(=O)OCC(=O)c2ccccc2)c1OC,.,.,-38,.,2,3,.,-22,
O=C(Nc1ccccn1)c1ccc2nc(-c3ccccc3)c(-c3ccccc3)nc2c1,4,-3,.,i,.,.,.,-2,
CCOc1ccc(NC(=O)CN(C)S(=O)(=O)c2ccc3c(c2)CCC(=O)N3)cc1,-8,-1,-1,i,6,-3,-2,8,
O=C(CSc1ncnc2ccccc12)Nc1cccc(S(=O)(=O)N2CCCC2)c1,-4,9,-18,i,-2,0,16,7,
CC(Oc1ccc(Cl)cc1Cl)c1nc(-c2ccc(NC(=O)c3ccco3)cc2)no1 (configuration not stated),2,-6,-22,i,3,-10,?,63,
Cc1ccc(C)c(C(=O)C(C)OC(=O)c2cccn2C)c1 (configuration not stated),-1,-3,16,i,4,-6,.,0,
COc1cc(OC)cc(-c2cc(N)n(S(=O)(=O)Cc3ccccc3)n2)c1,2,2,-11,i,4,4,6,-8,
CCCn1c(C(O)c2ccc3c(c2)OCO3)nc2ccccc21 (configuration not stated),5,2,-10,i,-1,0,.,-18,
O=C(/C=C/c1cccc(F)c1)N1CCc2ccccc21,-2,2,.,i,-3,-3,-151,10,
CCN(CC)S(=O)(=O)c1cc(C(=O)O)c(Cl)cc1Cl,23,-5,-17,i,3,2,-18,-9,
Fc1ccc(-c2cc(C(F)(F)F)nc(-n3cncn3)n2)cc1,21,12,.,i,9,-5,-62,0,
COc1ccc(NC(=O)C2CCN(S(=O)(=O)c3c(C)noc3/C=C/N(C)C)CC2)cc1,0,-4,-9,i,-6,-1,3,-10,
COC(=O)C(=C/C=C/N1CCOCC1)C(=O)OC,9,0,.,i,.,.,.,-2,
NC(=O)C(c1ccc(Cl)cc1)c1ccc(Sc2ccc(Cl)cc2)nn1 (configuration not stated),-12,5,-14,i,0,-21,.,-16,
Cc1ccc(S(=O)(=O)Oc2ccccc2/C=N/NC(N)=S)cc1,-11,3,-20,i,3,-11,-96,52,
Cn1c(=O)n(C)c2cc([N+](=O)[O-])c(N3CCN(S(=O)(=O)c4ccc(C(C)(C)C)cc4)CC3)cc21,7,-1,.,i,4,-23,50,29,
Cc1c(N2C(=O)CS/C2=N\N=C\c2ccc(Br)cc2)c(=O)n(-c2ccccc2)n1C,8,1,.,i,-2,-5,.,-7,

# Bioassay records as filed in PubChem.
